GLA inh pH 4.5 – inhibitors of human alpha-galactosidase A at pH 4.5 | P06280 | purified enzyme, 4-MU-alpha-Gal fluorescence, pH 4.5 | activity change, negative = inhibition, % at 105 µM | 230,000 tested, under 10 active | AID 1467; inconclusive = small, poorly fitted or top-dose-only inhibition, or a rising curve; inactive = flat fitted curve, though single readings scatter; no compound was filed as active;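 further: 0% = full activity with enzyme and -100% = basal without enzyme; dose as in the result columns while the protocol names 77 µM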
Rango release inh – inhibition of RanGTP-driven Rango-importin beta dissociation. hit rate 0.071% among 340,000. O95149+P62826. Potency, µM (titrated, usually from 46.1 µM), for the others: top-dose activity change, negative = inhibition. Biochemical FRET Rango-importin beta, RanGTP-induced dissociation; active means falling FRET ratio curve, often poorly fitted, with flat reads before Ran was added; inconclusive means other falling curves, or compound fluorescence or quenching; inactive means flat or rising ratio curve;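 further: potency means the concentration at half of the fitted maximal effect; % of control where 0% means no effect; nearly all actives have a fitted effect of over 45% in size; -100% = wells without RanGTP and RCC1; the record marks most hits as doubtful in a second field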
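Rango/importin beta premix (0.1/0.25 uM final), PBS + 1 mM DTT + 0.02% Tween-20 + 0.1% BSA; cpd 5 min RT; FRET pre-read; + RanGTP-RCC1 (0.6 uM Ran, 2 mM GTP, 0.2 uM RCC1); 45 min RT; FRET post-read, ex 430, em 486/530 nm.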
Rango complex inh – Rango-importin beta binding inhibition | Q14974 | Potency, µM (series often up to 92.2 µM), for inactives: at the highest dose inhibition of complex formation | hit rate 0.031% among 340,000 | Rango CFP/YFP FRET sensor + importin beta, 45 min; active = rising FRET ratio curve, often small or poorly fitted; inconclusive = mostly compound fluorescence or quenching in the first reads; inactive = flat curves in all reads;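 further: potency means the concentration at half of the fitted maximal effect; 0% = DMSO wells and 100% = buffer wells lacking importin beta; nearly all actives have a fitted effect of over 15% in size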
Target sequence (Q14974 whole entry, looked up): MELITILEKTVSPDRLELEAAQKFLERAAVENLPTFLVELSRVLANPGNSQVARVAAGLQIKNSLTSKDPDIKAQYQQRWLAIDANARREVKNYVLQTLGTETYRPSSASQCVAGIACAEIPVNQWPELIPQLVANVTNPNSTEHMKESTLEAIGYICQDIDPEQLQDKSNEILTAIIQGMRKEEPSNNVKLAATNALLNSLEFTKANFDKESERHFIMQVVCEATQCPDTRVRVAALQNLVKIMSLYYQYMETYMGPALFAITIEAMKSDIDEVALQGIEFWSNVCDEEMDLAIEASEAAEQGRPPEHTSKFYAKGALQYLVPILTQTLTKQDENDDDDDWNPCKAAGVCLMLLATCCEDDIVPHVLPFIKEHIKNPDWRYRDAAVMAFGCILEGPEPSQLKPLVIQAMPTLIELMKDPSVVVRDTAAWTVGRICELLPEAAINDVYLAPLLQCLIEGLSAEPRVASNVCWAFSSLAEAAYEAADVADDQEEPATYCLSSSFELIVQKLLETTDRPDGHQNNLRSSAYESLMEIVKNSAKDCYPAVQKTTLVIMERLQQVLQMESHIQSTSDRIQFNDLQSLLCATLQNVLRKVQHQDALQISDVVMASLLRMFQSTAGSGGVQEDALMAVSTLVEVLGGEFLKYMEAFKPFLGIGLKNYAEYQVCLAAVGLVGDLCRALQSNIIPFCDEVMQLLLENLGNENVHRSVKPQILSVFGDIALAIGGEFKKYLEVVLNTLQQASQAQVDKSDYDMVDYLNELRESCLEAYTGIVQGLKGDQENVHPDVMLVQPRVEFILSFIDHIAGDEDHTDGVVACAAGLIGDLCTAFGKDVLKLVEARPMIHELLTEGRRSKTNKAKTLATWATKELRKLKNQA
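Inhibition scored from the CFP 486 nm/YFP 530 nm FRET ratio 45 min after adding 0.125 microM importin beta to 50 nM Rango biosensor preincubated 5 min with compound (room temperature, PBS with DTT, Tween-20, BSA). No-importin wells as positive control.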
miR-21 FLuc – miR-21 reporter, rising signal; 340,000 tested, under 10 active; Potency, µM (top dose mostly 38.3 µM), for the others: at the highest dose reporter change, positive = more light; HeLa miR-21 FLuc reporter, luciferase, 48 h; active = well fitted rising curve with a large enough effect; inconclusive = small, poorly fitted or top-dose-only effect; inactive = no such curve, though single readings can be large or run the other way;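 further: % of control where 0% means no effect; miR-21 action dims this reporter so a rising signal means less miR-21 action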
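HeLa miR-21-FLuc reporter line, endogenous miR-21; 2000 cells/well in DMEM/10% FBS; compound titration up to ~40uM final, 48 h, 37 degree Celsius; luciferase detection reagent, 15 min lysis, CCD luminescence.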
* hit, by the source's call; ? = inconclusive; . = not tested or not shown; & = joins results of further samples. Not all compounds are listed. The share of hits here may be higher or lower than overall.

SMILES	GLA inh pH 4.5	Rango release inh	Rango complex inh	miR-21 FLuc
CC(=O)C1CCC2C3CCC4=CC(=O)CC[C@]4(C)[C@@]3(F)C(O)C[C@]12C (stereo not given in full)	-19	-11%	-5.8%	-17%
CC1(C)CC(=O)C(C=NCCc2ccc(O)cc2)=C(O)C1	5	-8%	-2.6%	0%
CN(C)CCn1c(=O)n(-c2cccc(Cl)c2)c(=O)c2c3c(sc21)CCCCC3	-14	8%	0.7%	0%
O=C(CSc1nnc(CNC(=O)c2c(F)cccc2F)o1)NCc1ccco1	.	1%	-0.3%	0%
COCCCn1c(SCC(=O)c2ccccc2)nc2ccccc2c1=O	-4	-19%	-1.0%	19%
Cc1ccnc(NS(=O)(=O)c2cccc([N+](=O)[O-])c2)c1	5	19%	-3.7%	3%
Nc1nonc1-n1nnc(C(=O)N/N=C/c2ccoc2)c1-c1ccccc1	.	2%	-0.2%	-3%
O=S(=O)(NC1CC(NS(=O)(=O)OCC(Cl)(Cl)Cl)C2CCCCC12)OCC(Cl)(Cl)Cl (stereo not given)	.	-11%	6.8%	19%
CC(NC(=O)COC(=O)C1=NN(c2ccccc2)C(=O)CC1)c1ccccc1 (stereo not given)	.	9%	-1.3%	.
CC1CC(C)CN(S(=O)(=O)c2ccc(C(C)(C)C)cc2)C1 (stereo not given)	-2	1%	-2.7%	0%
Cc1ccc(CS(=O)Cc2ccc(C(=O)NCCc3ccccc3)o2)cc1 (stereo not given)	.	-3%	0.2%	-5%
CS(=O)(=O)c1cccc(C(=O)OCC(=O)NC(=O)Nc2ccccc2F)c1	.	-9%	1.2%	.
COc1cccc(C(=O)NCCS(=O)(=O)N2CCCCC2)c1	.	7%	4.2%	.
O=[N+]([O-])c1nn(-c2ccc3c(c2)OCCO3)n(O)c1=NCc1ccccc1Cl	-4	16%	2.0%	-50%
Cc1c([N+](=O)[O-])cnc(Sc2ccccc2)c1[N+](=O)[O-]	.	-14%	-0.7%	.
O=C(OCC(=O)N1CCCC1)c1ccccc1O	.	-8%	2.6%	-52%
COc1c(C)cc(Br)cc1C(=O)Nc1ccc(N2CCN(S(C)(=O)=O)CC2)cc1	-1	-12%	6.7%	-2%
COc1ccc([N+](=O)[O-])cc1N(CC(=O)N1CCN(Cc2ccccc2)CC1)S(C)(=O)=O	.	-8%	5.0%	-1%
COC(=O)Cn1c(C)c(C(C)=O)c(C(C)=O)c1C	0	-9%	1.3%	-2%
Cc1cccc(NS(=O)(=O)c2cc3c4c(c2)C(C)C(=O)N4CCC3)c1 (stereo not given)	.	13%	0.1%	9%
CCCOc1ccc(C(=O)Nc2ccc(N3CCN(C(C)=O)CC3)cc2)cc1	-3	-10%	7.9%	-4%
COc1ccc(-c2nnc3n2N=C(C)CS3)cc1	-4	9%	-2.6%	-5%
CCN(CC)C(=O)COc1cc(C)c(Cl)c(C)c1	0	0%	3.3%	-7%
COc1ccc(C(CCN)Cc2ccccc2)cc1 (stereo not given)	-1	-5%	?	4%
O=[N+]([O-])c1ccc(OCCn2cnc3ccccc32)cc1	-2	32%	1.0%	-5%

Seven entries drawn at random from those above:
SMILES	GLA inh pH 4.5	Rango release inh	Rango complex inh	miR-21 FLuc
COc1cccc(C(=O)NCCS(=O)(=O)N2CCCCC2)c1	.	7%	4.2%	.
CC1CC(C)CN(S(=O)(=O)c2ccc(C(C)(C)C)cc2)C1 (stereo not given)	-2	1%	-2.7%	0%
COC(=O)Cn1c(C)c(C(C)=O)c(C(C)=O)c1C	0	-9%	1.3%	-2%
Cc1ccc(CS(=O)Cc2ccc(C(=O)NCCc3ccccc3)o2)cc1 (stereo not given)	.	-3%	0.2%	-5%
COc1ccc([N+](=O)[O-])cc1N(CC(=O)N1CCN(Cc2ccccc2)CC1)S(C)(=O)=O	.	-8%	5.0%	-1%
O=C(OCC(=O)N1CCCC1)c1ccccc1O	.	-8%	2.6%	-52%
COCCCn1c(SCC(=O)c2ccccc2)nc2ccccc2c1=O	-4	-19%	-1.0%	19%

Next section
SMILES	GLA inh pH 4.5	Rango release inh	Rango complex inh	miR-21 FLuc
N#Cc1cccc(-c2cn(S(=O)(=O)c3ccc(Cl)cc3)nc2N)c1	-11	1%	1.2%	10%
ON=C1c2cc(OCCN3CCCCC3)ccc2-c2ccc(OCCN3CCCCC3)cc21	.	1%	-0.4%	-17%
CN1C(C(=O)NCc2cccc(Br)c2)CC2Cn3c(nc4cc5ccccc5cc43)C21 (stereo not given)	0	-3%	0.9%	23%
COc1ccc(-c2cn(CCN)c(-c3ccncc3)n2)cc1	.	13%	3.8%	.
C=C(C)c1cccc(C(C)(C)NC(=O)N2CC(C)OC(C)C2)c1 (stereo not given)	-7	-1%	3.2%	-3%
O=C(CCS(=O)(=O)c1ccc(Cl)cc1)Nc1ccc(N2CCOCC2)cc1	3	15%	-4.5%	-1%
O=C(NC1CCN(Cc2ccccc2)CC1)C(NS(=O)(=O)c1cccc2nsnc12)c1ccccc1 (stereo not given)	4	-2%	-0.6%	-7%
CCc1ccccc1NC(=O)CSc1n[nH]c(-c2cccnc2)n1	.	-9%	1.5%	-1%
COc1cccc(/C=C/C(=O)OCC(=O)N2c3ccccc3CC2C)c1OC (stereo not given)	.	7%	-4.8%	.
O=C(CCCO)NC1Cc2ccccc2C1	-15	-7%	0.3%	3%
O=C(Nc1ccc(N2CCN(C(=O)c3ccco3)CC2)c(Cl)c1)c1c(F)c(F)c(F)c(F)c1F	0	14%	-1.5%	23%
O=C1Cc2ccccc2N1c1c(Cl)cccc1Cl	-3	12%	-1.8%	2%
COc1ccc(NS(=O)(=O)c2ccc3oc(SC4CCOC4=O)nc3c2)cc1 (stereo not given)	6	-15%	-1.8%	1%
CC(=O)N1CCc2cc(Br)cc(S(=O)(=O)NCC3CCCO3)c21 (stereo not given)	2	6%	-3.5%	5%
COc1ccc(OC)c2[nH]c(=O)c(CCNC(=O)Cc3cccs3)cc12	5	10%	-2.9%	-7%
CSCC[C@H](NC(=O)Cc1c(C)c2c(cc(C)c3c(C)c(C)oc32)oc1=O)C(=O)O	.	10%	-2.3%	0%
CCOc1ccc(C(=O)Nc2nc(C)cc(C)n2)cc1[N+](=O)[O-]	-12	-8%	-0.7%	-2%
C[C@H](CO)N1C[C@H](C)[C@@H](CN(C)C)Oc2c(NC(=O)C3CC3)cccc2C1=O	.	-15%	4.6%	.
CCOC(=O)C1CCN(C(=O)C(C)N(c2ccc(Oc3ccccc3)cc2)S(C)(=O)=O)CC1 (stereo not given)	-22	-11%	-5.0%	17%
COc1ccc(Cl)c(OC)c1C(=O)NC(=O)Nc1c(F)cc(F)cc1F	2	9%	1.3%	-5%
COc1ccc(OC)c(C2C(C(=O)c3ccccc3)=C(C)Nc3nc4ccccc4n32)c1 (stereo not given)	4	-6%	-2.0%	-5%
O=C(Nc1ccc2nccnc2c1)Nc1ccccc1Cl	.	-16%	?	-51%
CCOC(=O)C1CCN(c2nc(-c3ccc(Br)cc3)nc3ccccc23)CC1	-3	47%	3.2%	0%&6%
Cn1c(SCC(=O)NCCc2ccc(S(N)(=O)=O)cc2)nc2ccccc2c1=O	0	6%	0.7%	2%
CC(C)C(=O)Nc1ccc(C(=O)N2CCCCCC2)cc1	7	-8%	1.1%	0%
(next part)
SMILES	GLA inh pH 4.5	Rango release inh	Rango complex inh	miR-21 FLuc
Cn1c(SCC(=O)Nc2ccccc2Br)nnc1-c1cnccn1	.	-6%	-3.2%	6%
CCOC(=O)c1ccc(Nc2nc(C(=O)OCC)nc3ccccc23)cc1	-17	-25%	-5.5%	19%&16%
O=C(Cc1ccccc1)NCC(=O)N1CCCCC1	3	-8%	0.4%	-11%
Cc1ccc(C)c(N2CCN(C(=O)c3cc4ccccn4n3)CC2)c1	-4	?	?	-20%
C(=N\c1nc2ccccc2n1CCN1CCCCC1)/c1cccs1	4	1%	2.3%	-12%
O=c1cc(C(F)F)oc2c1ccc1ccccc12	-2	9%	5.8%	-10%
CCOC(=O)c1[nH]c(C)c(C(=O)N2CCc3ccccc32)c1C	3	11%	2.8%	23%
CN(C)c1ccc(C=Nc2cnn(C)c2C(N)=O)cc1	-5	?	?	-25%
CC(=O)NC12CC3CC(C1)CC(C(=O)Nc1ccc(C)c(S(=O)(=O)N4CCCCCC4)c1)(C3)C2	.	5%	0.6%	.
Cc1ccc(NS(=O)(=O)c2c(C)ccc3nsnc23)c([N+](=O)[O-])c1	.	10%	-1.5%	0%
O=C(NCc1ccccc1)C(=O)Nc1nc(-c2ccccc2)cs1	2	5%	0.5%	-14%
O=C1NCC(Nc2ccccc2)C(=O)N1 (stereo not given)	.	-14%	2.2%	.
O=C(N/N=C/c1c(Nc2cccc(C(F)(F)F)c2)nc2ccccn2c1=O)c1ccccc1	-10	.	.	-4%
Cc1ccc(C)c(NC(=O)CCC(=O)N/N=C/c2cccnc2)c1	.	-16%	-1.4%	4%
O=C(Nc1cccc(F)c1)/C(=C\c1ccco1)NC(=O)c1cccs1	3	-17%	?	-7%
O=C(Nc1cc(S(=O)(=O)N2CCOCC2)ccc1N1CCCCC1)c1ccccc1	.	-7%	-3.9%	.
CCN(CC)S(=O)(=O)c1ccc(Oc2ccccc2)cc1	-2	14%	2.8%	0%
CC(=O)Nc1ccc(Oc2ccc(NC(C)=O)c(NC(C)=O)c2)cc1	7	19%	-1.9%	-1%
COc1ccc(NC(=O)c2oc3ccccc3c2NC(=O)C2CCCO2)cc1OC (stereo not given)	-3	5%	-0.2%	-36%
COC(=O)c1ccccc1-n1cccc1C(=O)NP(=O)(N1CCOCC1)N1CCOCC1	-6	-9%	1.8%	-2%
C/C(=N\N=C(N)N)c1ccc(C)c(C)c1	1	-7%	4.0%	11%
Cc1c(NC(=O)CN2CCN(c3ccc([N+](=O)[O-])cc3)CC2)c(=O)n(-c2ccccc2)n1C	-10	1%	-0.5%	10%
CN1C(=O)C(/C(N)=N/NC(=O)c2ccccc2)C2CC1(C)Oc1ccccc12 (stereo not given)	3	-7%	0.7%	1%
CN1CCN(CCCNC(=O)Nc2cccc3ccccc23)CC1	0	-4%	0.3%	-5%
Cc1ccc(S(=O)(=O)N2CCCCC2)cc1C(=O)OC1CCCCC1=O (stereo not given)	.	8%	0.0%	.

Taken from the results shown (2 entries):
SMILES	GLA inh pH 4.5	Rango release inh	Rango complex inh	miR-21 FLuc
CCOC(=O)c1ccc(Nc2nc(C(=O)OCC)nc3ccccc23)cc1	-17	-25%	-5.5%	19%&16%
O=C(Cc1ccccc1)NCC(=O)N1CCCCC1	3	-8%	0.4%	-11%

(continued)
SMILES	GLA inh pH 4.5	Rango release inh	Rango complex inh	miR-21 FLuc
O=C(NCC1(c2ccccc2)CCCC1)c1ccco1	-4	-1%	3.5%	3%
CCOC(=O)C1C(=O)NC(c2ccccc2)=NC1c1ccccc1 (stereo not given)	4	-9%	1.8%	-3%
Cc1ccccc1NC(=O)CC1C(=O)Nc2ccccc2N1CC(=O)N(C)C1CCS(=O)(=O)C1 (stereo not given)	.	?	?	.
CCO[C@H]1OC(C(=O)NCc2ccccc2)=C[C@@H](c2coc3ccccc3c2=O)[C@@H]1CCCO	0	-2%	0.6%	6%
CC1CN(c2ccc([N+](=O)[O-])c(NCCOc3ccccc3)c2)CCN1 (stereo not given)	-19	-7%	2.9%	5%
COc1ccc(O)c(C(=O)c2cnc3nc4ccccc4n3c2)c1	-2	5%	?	2%
O=C(Cc1ccccc1)NC(=S)Nc1ccc2oc(-c3ccccc3)nc2c1	-6	.	.	-16%
CN(C)c1nc2ccc(OCCN3CCCCC3)cc2s1	3	3%	-7.3%	-28%
CC(C)(C)c1ccc(COC(=O)Nc2ccc(F)cc2)cc1	-3	1%	-0.5%	-8%
CC(=O)Nc1cccc(/C(C)=N/NC(=O)c2ccc(Cl)cc2Cl)c1	12	-12%	0.0%	-10%
CCC(CC)c1nnc(NC(=O)C2CC(=O)N(c3ccc4c(c3)OCCO4)C2)s1 (stereo not given)	6	6%	2.9%	0%
CCOC(=O)CNC(=O)N1CCCC(C(=O)c2ccccc2SC)C1 (stereo not given)	-2	-7%	0.4%	-2%
COC(=O)c1cccc(C(=O)Nc2ccc(C)cc2Br)n1	-1	-6%	0.1%	-47%
